E coli growth – inhibitors of Escherichia coli growth; OD600, 23 h; active compounds read low; OD600 absorbance (concentration not given with the values); actives 0.21% (n = 330,000); AID 1053175;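 active = OD600 absorbance below the run mean of sample wells minus 3.6 SD, in any replicate, cut at about 0.56 in these data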;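 also: stock transfer was 300 nL into about 60 µL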
T cruzi repl – T. cruzi replication inhibition; T. cruzi beta-gal in NIH3T3, luminescence, 90 h; inhibition, % (test concentration not listed); actives 1.4% (n = 300,000);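 active = mean inhibition across valid replicates above about 55%, limit read from the data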;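 also: signal also drops with host cell toxicity which is not excluded here; 0% = plate median of DMSO wells and 100% = zero luminescence signal; higher percent means less beta-gal luminescence so fewer parasites; stock transfer was 50 nL into about 50 µL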
Beta apoptosis – blocks beta cell apoptosis; INS-1E cytokine-induced death, ATP luminescence, 48 h; percent of positive-control rescue, neutral wells zero; protection from apoptosis, % (concentration not given with the values); actives 0.8% (n = 300,000); AID 435005;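 active = all replicates at 75% or more, or half of them and the mean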;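 also: 0% = cytokine-treated negative control wells and 100% = positive control rescue; higher means more ATP so stronger rescue from cytokine killing; wells of about 40 µL received 100 nL stock; the first replicate is given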
A1 inh – inhibitors of the anti-apoptotic protein A1, read as caspase activation; MEF A1-2A-BIM cells, Caspase-Glo 3/7 luminescence, 3 h; percent of clofoctol response, vehicle zero; caspase activation, % (test concentration not listed); actives 0.066% (n = 330,000); AID 2462;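 active = over half of replicate activation scores above 10%, or exactly half above 10 with the replicate mean above 10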;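 also: wells of about 30 µL received 50 nL stock; many hits fall short of the cut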
Ecoli rRNA inh – inhibits bacterial ribosomal RNA function over humanized ribosomes; E. coli WT GFP vs humanized-ribosome RFP mutants, fluorescence, 24 h; active compounds read low; DMSO median 0, no signal -100; GFP signal change (wild-type ribosome), % (test concentration not listed); actives 1.6% (n = 350,000);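 active = significant combined selectivity score with lowered wild-type GFP, culture density cut under 30%, mutant RFP and density less affected; inactive = any of these conditions unmet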; also: one replicate is shown; some compounds called inactive have numbers as strong as hits
MLL AF4-AF9 inh – inhibitors of human MLL-AF4/AF9 interaction | P42568 | AlphaScreen, biotin-AF4 peptide binding to FLAG-AF9 | inhibition, % at 10 µM | actives 0.47% (n = 350,000) | AID 651704;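 active = every replicate reaching a set inhibition limit, whatever the replicate mean, cut at about 25% in these data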;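 also: 0% = plate neutral control median and 100% = total signal loss; the record names both 10 and 1 µM as test concentration; the first replicate is given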
Target sequence (P42568 whole entry, looked up): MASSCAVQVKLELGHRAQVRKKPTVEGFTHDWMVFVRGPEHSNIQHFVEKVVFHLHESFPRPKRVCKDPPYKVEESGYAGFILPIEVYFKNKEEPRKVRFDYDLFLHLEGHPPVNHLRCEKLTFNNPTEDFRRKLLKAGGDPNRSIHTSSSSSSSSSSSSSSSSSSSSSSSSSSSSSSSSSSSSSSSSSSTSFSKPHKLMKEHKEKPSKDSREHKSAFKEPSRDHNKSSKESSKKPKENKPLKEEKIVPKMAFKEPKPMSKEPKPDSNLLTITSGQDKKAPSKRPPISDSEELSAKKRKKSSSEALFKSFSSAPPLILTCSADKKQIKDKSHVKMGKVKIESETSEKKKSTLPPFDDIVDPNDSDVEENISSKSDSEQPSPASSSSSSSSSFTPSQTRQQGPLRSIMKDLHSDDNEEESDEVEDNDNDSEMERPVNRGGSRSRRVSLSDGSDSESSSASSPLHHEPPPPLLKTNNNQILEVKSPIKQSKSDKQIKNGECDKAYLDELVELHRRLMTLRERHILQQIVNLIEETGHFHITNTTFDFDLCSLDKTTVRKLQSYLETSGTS
UCH37 inh – inhibitors of human deubiquitinating enzyme UCH37; Q9Y5K5; purified proteasome/UCH37, Ub-AMC cleavage fluorescence; inhibition, % (no concentration beside the values); actives 0.33% (n = 330,000); AID 588478;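 active = mean of two replicates above 20%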;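 also: 0% = compound-free wells with enzyme and 100% = wells lacking proteasome; stock transfer was 100 nL into about 20 µL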
Target sequence (Q9Y5K5 whole entry, looked up): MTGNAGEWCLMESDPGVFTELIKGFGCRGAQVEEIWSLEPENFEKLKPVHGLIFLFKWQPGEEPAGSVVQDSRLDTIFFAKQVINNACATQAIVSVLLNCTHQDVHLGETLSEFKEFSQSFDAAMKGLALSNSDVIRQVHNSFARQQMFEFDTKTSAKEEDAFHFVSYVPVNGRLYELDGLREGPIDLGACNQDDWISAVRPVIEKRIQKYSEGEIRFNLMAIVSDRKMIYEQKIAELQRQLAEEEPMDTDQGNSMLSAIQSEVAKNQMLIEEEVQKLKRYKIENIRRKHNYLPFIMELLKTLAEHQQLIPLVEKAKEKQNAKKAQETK
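Material: Human UCH37 enzyme supplied as purified proteasome complex | Schedule: 30 min compound-proteasome preincubation then 25 min substrate reaction, room temperature | Detection: AMC fluorescence from Ub-AMC cleavage, excitation 355 nm, emission 460 nm | Benchmarks: Wells without proteasome as full block, compound-free enzyme plus substrate as uninhibited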
FGF22 binding – FGF22 (human) thermal shift binding | Q9HCT0 | recombinant FGF22 thermal shift, SYPRO orange fluorescence; percent of sucrose octasulfate shift, DMSO zero | calls only at 9.99 µM | actives 1.5% (n = 340,000) | AID 651658;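 active = melting point raised past a set limit in the mean and every replicate; three in four hits are not shown here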
Target sequence (Q9HCT0 whole entry, looked up): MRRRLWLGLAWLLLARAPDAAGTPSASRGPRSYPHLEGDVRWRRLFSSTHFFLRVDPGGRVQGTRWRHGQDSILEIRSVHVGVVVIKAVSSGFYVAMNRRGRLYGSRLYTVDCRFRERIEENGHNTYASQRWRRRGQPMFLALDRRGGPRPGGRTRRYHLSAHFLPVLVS
Ecoli rRNA inh OD600 – further read-out of Ecoli rRNA inh, marked with its call; OD600 change, %; measured here: OD600 growth;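 optical density of the mix in the first replicate; 0 = DMSO median and -100 = no signal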
Ecoli rRNA inh RFP – second read-out of Ecoli rRNA inh, no call of its own (marks repeat the call); RFP signal change, %; measured here: RFP humanized mutant strains;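 first replicate; 0 = DMSO median and -100 = no signal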
* hit, by the source's call; i = inactive; nt = no result given. The list is partial; the hit share may differ from the screen's.

SMILES	E coli growth	T cruzi repl	Beta apoptosis	A1 inh	Ecoli rRNA inh	Ecoli rRNA inh OD600	Ecoli rRNA inh RFP	MLL AF4-AF9 inh	UCH37 inh	FGF22 binding
Cc1ccc(S(=O)(=O)N2CCN(C(=O)CSc3nnc(C)s3)C2)cc1	0.757	-1.0	-8.4	0.6	10.4	5.1	0.1	-20.9	-2.2	i
CCCCC(CC)CNCc1cccn1CCN1CCOCC1 (centres undefined)	0.635	11.5	nt	1.1	-1.3	5.3	-8.5	8.8	-0.6	i
CC(C)NC(=O)C(=O)NCCc1ccc(Cl)cc1	0.746	1.9	-12.0	-0.3	nt	nt	nt	nt	0.8	nt
CC1Cc2ccccc2N1C(=O)C(C)n1cc(C(F)(F)F)cc(Cl)c1=O (centres undefined)	0.694	nt	-2.4	0.1	2.4	-3.9	1.8	-3.9	1.9	i
c1ccc2nc3c(cc2c1)CCCCCC3	0.666	-6.8	-7.4	0.2	nt	nt	nt	nt	-3.8	nt
O=C(/C=C/c1ccc([N+](=O)[O-])cc1)N1CCN(S(=O)(=O)c2ccccc2)CC1	0.701	nt	9.9	-0.5	-1.9	-1.1	-2.4	1.9	5.2	i
COC(=O)c1cc2oc(C)cc2n1CC(=O)Nc1ccc(C)c(C)c1	0.656	21.4	nt	-0.4	nt	nt	nt	nt	2.3	nt
O=C(Cc1csc(-c2ccccc2)n1)NCc1ccco1	0.643	-6.7	1.8	0.1	1.8	3.5	-1.5	-6.0	-2.8	i
Cc1[nH]c2ccc(CNS(=O)(=O)c3ccc(S(=O)(=O)N4CCOCC4)cc3)cc2c1C	0.667	13.0	-4.5	0.0	nt	nt	nt	nt	0.4	nt
CCOc1ccc(/C(CCC(=O)O)=N/NC(=S)NCCc2ccccc2)cc1	nt	-8.3	2.5	-1.3	-36.4	-50.8	1.4	-1.8	nt	nt
O=C(CN1CCN(Cc2ccccc2F)C1=O)NCC1CCCO1 (centres undefined)	0.721	-4.8	-4.1	1.0	7.5	10.5	2.2	-1.3	-0.6	i
O=C(Nc1ccc2c(c1)OCCO2)C1CCN(S(=O)(=O)c2cccc3nsnc23)CC1	0.75	5.6	-3.4	0.4	nt	nt	nt	nt	1.3	nt
O=C(NCCc1cnc[nH]1)c1ccc(-c2ccccc2)cc1	0.631	60.4*	-8.2	-1.5	-8.0	-10.8	-1.4	1.4	4.0	i
CCOC(=O)COn1c(=O)c(-c2cccs2)[n+]([O-])c2ccccc21	0.768	5.3	-11.7	0.4	nt	nt	nt	nt	-3.5	nt
COc1cc(NC(=S)N2CCN(C(=O)c3ccco3)CC2)c(OC)cc1Cl	0.681	2.1	-4.1	-0.7	nt	nt	nt	nt	-0.1	nt
COCCCn1c(C(=O)Nc2ccc3c(c2)OCO3)cc2c(=O)n3ccccc3nc21	0.661	11.5	1.0	0.4	1.8	3.0	-2.0	-0.2	-216.6	i
Cc1ccccc1C(=O)Nc1ccccc1NC(=O)c1ccccc1Br	0.705	-4.5	-2.6	-0.2	-7.9	-1.5	4.9	-2.7	1.3	i
CC(C)(C)N(NC(=O)OCc1ccccc1)C(=O)c1ccccc1	0.683	0.3	-4.1	-0.7	nt	nt	nt	nt	5.2	nt
CCc1nc2sc3c(c2c(=O)n1N)CCC3	0.66	1.0	1.2	0.1	nt	nt	nt	nt	2.9	nt
C#CNC(=O)C1(CC=C)CCNCC1	0.679	-23.8	-9.9	-0.3	11.7	10.0	1.9	nt	32.2*	i
NC(=O)N/N=C/c1cn(-c2ccccc2)nc1-c1ccccc1	nt	2.0	9.0	-4.3	-18.1*	8.9*	-3.8*	5.4	nt	nt
CCN(CC)CCCn1c(C)cc2c(c1=O)C(c1cc(OC)c(OC)cc1OC)C(C#N)=C(N)O2 (centres undefined)	0.673	-7.8	-0.1	1.8	nt	nt	nt	nt	0.7	nt
O=C(CSC(=S)N1CCSCC1)c1ccccc1	0.664	-9.1	nt	nt	-10.1	-6.0	-0.2	-1.0	4.7	i
COc1cc(/C=C/C2=NNC(=O)CC2)cc(OC)c1OC	0.671	5.7	nt	0.3	-0.6	8.2	-0.5	-1.4	-28.5	i
O=c1c2ccc([N+](=O)[O-])cc2ncn1Cc1ccccc1C(F)(F)F	0.721	43.8	7.9	-0.1	17.9	6.2	2.2	1.1	2.4	i

Other records
SMILES	E coli growth	T cruzi repl	Beta apoptosis	A1 inh	Ecoli rRNA inh	Ecoli rRNA inh OD600	Ecoli rRNA inh RFP	MLL AF4-AF9 inh	UCH37 inh	FGF22 binding
CCc1cc2c(N3CCN(C(=O)c4ccco4)CC3)ncnc2s1	0.701	-8.0	-1.4	-0.3	-30.0*	-22.5*	-3.7*	-0.3	0.1	i
CCc1c(C(=O)NN2C(=O)C3CCCCC3C2=O)csc1C (centres undefined)	0.631	-18.1	-2.4	0.1	2.8	7.2	3.0	-1.4	4.9	i
CN1/C(=C\C(=O)C[n+]2cccc(Br)c2)C(C)(C)c2ccccc21	0.671	-14.1	100.2*	0.6	3.4	1.9	41.8	2.2	17.3	i
CCCn1c(NCc2cc(C)ccc2O)nc2ccccc21	0.625	0.2	0.0	-1.0	nt	nt	nt	nt	2.9	nt
CC(C)NC(=O)c1ccc(-n2nc(C(F)(F)F)c3c2CCCC3)cc1	0.701	5.5	4.0	-1.3	nt	nt	nt	nt	5.9	nt
Cc1cccc(/C=C\c2nc3ccccc3c(=O)[nH]2)c1	0.757	-3.9	17.2	-8.2	18.0	17.2	0.9	7.2	i	i
CC(C)(C)NC(=O)C(c1ccc(O)cc1)N(Cc1ccccc1)C(=O)CCC(=O)Nc1nccs1 (centres undefined)	0.702	7.2	4.0	-0.3	7.5	20.3	4.8	2.9	1.9	i
COc1ccc(N(C)C(=O)c2sc(Cl)nc2C)cc1	0.704	9.9	-3.6	-1.3	2.6	0.6	-2.6	-2.2	3.4	i
COc1ccc(C(=O)N(CC2CCCO2)C(C(=O)NCCC(C)C)c2ccc(C)cc2)cc1OC (centres undefined)	0.672	-5.0	-0.1	0.1	nt	nt	nt	nt	2.0	nt
CC(C)(C)c1cn(-c2ccc(F)cc2)c(=S)[nH]1	0.663	3.6	1.1	0.2	nt	nt	nt	nt	3.9	nt
COc1cccc(N2CCC(N3CCN(C)C(CCO)C3)CC2)c1 (centres undefined)	0.634	0.0	nt	0.1	16.7	19.6	0.4	-3.7	-2.8	i
C[C@H](NC(=O)NC1CCCc2ccccc21)C(=O)O (some centres undefined)	nt	-12.1	-2.9	0.7	nt	nt	nt	nt	3.1	nt
NC(=O)C1(C(N)=O)OC1c1ccc(Cl)c(Cl)c1 (centres undefined)	0.674	2.8	-6.1	0.4	20.8	3.8	1.0	24.1	6.6	i
O=c1c(C(c2nnnn2C2CCCCC2)N2CCCCC2)coc2ccc(Cl)cc12 (centres undefined)	0.653	-10.3	3.3	-1.2	nt	nt	nt	nt	-1.7	nt
N#Cc1sc2nc3c(c(-c4ccco4)c2c1N)CCCC3	0.695	22.0	5.6	0.7	nt	nt	nt	nt	-26.0	nt
Cc1ccccc1C(=O)NCCCc1ccccc1	0.692	4.7	-4.2	1.6	nt	nt	nt	-0.2	6.0	i
O=C(Cc1c[nH]c2ccccc12)Nc1nc2ccccc2[nH]1	0.633	-6.4	-0.1	-0.6	nt	nt	nt	nt	-3.6	nt
COc1cc(C(C)=O)ccc1OCC(=O)Nc1ccc2nc(C)sc2c1	0.666	nt	2.5	0.6	3.4	12.6	-1.2	-1.9	3.6	i
CCCn1cnc2c(SCc3ccc(Cl)cc3)nc(N)nc21	0.638	nt	nt	nt	6.3	-32.2	3.3	-2.9	0.2	i
O=C(CNC(=O)c1ccc(S(=O)(=O)N2CCCCC2)cc1)N/N=C/c1ccco1	nt	-1.2	-7.2	-0.2	5.6	6.3	-2.5	-0.5	nt	i
O=[N+]([O-])c1ccc(C=NNC(=S)NN=Cc2ccc([N+](=O)[O-])cc2)cc1	0.69	nt	nt	nt	9.7	17.6	-0.5	-3.5	9.4	i
COc1ccc(-c2nc(NC(=O)c3cc(C(C)(C)C)nn3C)sc2C)cc1	0.672	57.0*	85.1*	0.6	nt	nt	nt	nt	-24.5	nt
c1ccc(Cn2nnc3ccccc32)cc1	0.611	-7.3	-6.2	0.9	-10.5	-2.5	-2.1	1.9	5.2	i
O=C(Nc1ccc(-c2csc(-c3ccccc3)n2)cc1)c1ccccc1	0.724	12.5	9.2	-0.7	nt	nt	nt	nt	-6.8	nt
CC1(C)[C@@H](O)CC[C@]2(C)[C@H]3C(=O)C=C4[C@@H]5C[C@@](C)(C(=O)O)CC[C@]5(C)CC[C@@]4(C)[C@]3(C)CC[C@@H]12	nt	-6.3	-5.3	-0.9	nt	nt	nt	0.4	2.3	i

The list goes on.
SMILES	E coli growth	T cruzi repl	Beta apoptosis	A1 inh	Ecoli rRNA inh	Ecoli rRNA inh OD600	Ecoli rRNA inh RFP	MLL AF4-AF9 inh	UCH37 inh	FGF22 binding
N#CC1=C(N)NC(SCC(=O)O)=C(C#N)C12CCCC2	0.812	-14.5	-2.1	0.5	nt	nt	nt	nt	7.2	nt
Cc1ccc(NC(=O)NC(=O)CN2CCN(c3ccc(O)cc3)CC2)c(C)c1	0.712	9.2	3.4	0.1	-6.6	3.9	-1.7	-7.4	-0.3	i
Cc1ccccc1CS(=O)(=O)Cc1ccc(C(=O)NCCc2ccccc2)o1	0.681	20.1	-8.1	0.4	-15.8	-17.9	-2.1	1.0	3.9	i
CCOC(=O)C1CCCN(C(=O)c2cc3ccccc3oc2=O)C1 (centres undefined)	0.694	-21.5	-6.3	0.6	5.6	-5.0	0.6	3.8	1.5	i
Cc1ccccc1C(=O)Nc1cc(-c2cc(C(C)(C)C)oc2C)nn1C	0.62	14.4	5.1	1.0	2.6	2.4	1.7	3.3	4.2	i
Oc1ccc(-c2cn3ccccc3n2)cc1	0.655	-7.1	4.8	-4.9	4.3	-1.6	-4.4	1.5	-66.1	nt
Cc1nc(N2CCC(C)CC2)c2oc3ccccc3c2n1	0.701	-13.4	7.0	-0.6	nt	nt	nt	nt	-362.6	nt
CCN1C(=O)C2(C(C#N)=C(N)Oc3n[nH]c(COC)c32)c2ccccc21 (centres undefined)	0.588	1.6	0.7	0.5	18.3	10.4	-1.9	nt	-0.4	nt
C=CCn1c(SCC(=O)Nc2cccc(S(N)(=O)=O)c2)nnc1C1CCCCC1	0.671	nt	nt	nt	-4.0	-5.3	-2.5	0.7	4.2	i
O=[N+]([O-])c1ccccc1S(=O)(=O)Nc1ccn(Cc2c(F)cccc2Cl)n1	nt	-3.0	nt	0.8	-10.3	-6.9	2.6	0.7	nt	i
Cc1cccc(NC(=S)NCCc2ccc(F)cc2)c1C	0.709	nt	-7.4	3.4	-7.4	-9.4	-11.7	-11.7	6.8	i
CCOc1ccccc1NC(=O)COC(=O)C(CC)c1ccccc1 (centres undefined)	0.672	4.4	-0.2	1.8	-1.4	-13.8	0.9	-1.7	1.4	i
O=S(=O)(c1cccc(-c2nc3n(n2)Cc2ccccc2-3)c1)N1CCCC1	0.687	6.9	nt	-2.1	8.2	3.2	-0.3	-0.8	3.0	nt

Compound activity as filed in PubChem.
